Mtb MenB inh = blocks the Mycobacterium tuberculosis MenB enzyme. P9WNP5. MenB enzyme assay, absorbance read-out; some hits fall short of the stated cut. inhibition, %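 (about 12 µg/mL by stock and volumes)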. 0.43% of 100,000 active;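 active means mean of two replicates above 30%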;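 further: 0% = no compound and 100% = wells with inactive enzyme; the first replicate is given; strong numbers were not always called active; inactives centre near -10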
PV pol inh = poliovirus RNA polymerase inhibition | % elongation, % (compound at 16.7 µg/mL) | P03300 | 0.66% of 150,000 active | poliovirus polymerase elongation, fluorescence polarization; hits give low values; in the data active means % elongation below about 90%; further: some results filed as inactive read as strong as hits
Target sequence (P03300 1749-2209 limits assumed): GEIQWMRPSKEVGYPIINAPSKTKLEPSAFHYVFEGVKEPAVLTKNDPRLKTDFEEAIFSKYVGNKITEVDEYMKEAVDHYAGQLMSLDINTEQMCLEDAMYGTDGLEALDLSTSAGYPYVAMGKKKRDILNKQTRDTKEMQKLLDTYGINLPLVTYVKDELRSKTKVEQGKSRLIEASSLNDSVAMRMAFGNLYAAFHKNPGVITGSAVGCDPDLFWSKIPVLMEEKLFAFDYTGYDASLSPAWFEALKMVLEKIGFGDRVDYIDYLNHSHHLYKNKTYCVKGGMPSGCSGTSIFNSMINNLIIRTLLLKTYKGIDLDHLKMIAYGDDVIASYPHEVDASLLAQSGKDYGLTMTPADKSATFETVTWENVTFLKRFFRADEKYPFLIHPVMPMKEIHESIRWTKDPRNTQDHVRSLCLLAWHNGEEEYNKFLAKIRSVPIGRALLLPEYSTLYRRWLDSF
Mtb MbtI inh = MbtI salicylate synthase inhibition. 0.89% of 100,000 active. P9WFX0. inhibition, %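 (about 17 µg/mL by stock and volumes)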. purified MbtI enzyme, fluorescence intensity read-out;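 active means above 50% in both replicates, above 80% if mildly self-fluorescent; inactive means the rest, strongly fluorescent compounds included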;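 further: 0% = mean of negative and 100% = mean of positive controls; one replicate is shown; some compounds called inactive have numbers as strong as hits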
Target sequence (P9WFX0 whole entry, looked up): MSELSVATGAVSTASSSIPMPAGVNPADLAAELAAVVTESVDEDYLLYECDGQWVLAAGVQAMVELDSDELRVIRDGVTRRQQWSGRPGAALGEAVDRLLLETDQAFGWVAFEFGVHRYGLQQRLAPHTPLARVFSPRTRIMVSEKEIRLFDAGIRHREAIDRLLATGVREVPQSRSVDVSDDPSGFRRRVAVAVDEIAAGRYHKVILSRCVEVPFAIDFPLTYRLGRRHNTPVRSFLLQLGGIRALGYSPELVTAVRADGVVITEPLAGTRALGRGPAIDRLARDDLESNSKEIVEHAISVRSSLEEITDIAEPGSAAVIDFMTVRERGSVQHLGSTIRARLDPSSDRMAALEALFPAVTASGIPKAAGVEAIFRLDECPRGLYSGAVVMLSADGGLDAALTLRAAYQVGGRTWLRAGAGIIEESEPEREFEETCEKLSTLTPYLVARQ
PV pol inh intensity = further read-out of PV pol inh, marked with its call; % elongation; measured here: total intensity read-out; formula for this scale not given here;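 total fluorescence in place of polarization; lower means less elongation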
* = called active by the depositor; i = inactive; · = not tested or not shown.

SMILES	Mtb MenB inh	PV pol inh	PV pol inh intensity	Mtb MbtI inh
CCc1nnc(N2CCN(c3ncnc4c3oc3ccccc34)CC2)s1	-2	102	102	-3
COc1ccc(N2CC(C(=O)NCCc3c[nH]c4ccccc34)CC2=O)cc1 (configuration not stated)	3	102	103	-1
COc1ccc(C)cc1NS(C)(=O)=O	-48	105	101	-16
CSc1cccc(NC(=O)c2ccc(CN3CCOCC3)cc2)c1	-18	105	110	·
C/C(=N\OCc1ccc(C(=O)N2CCCCC2)o1)c1cccc(C(F)(F)F)c1	-5	98	98	21
CCN(CC)S(=O)(=O)c1ccc(N2CC(C(=O)Nc3ccc4c(c3)OCO4)CC2=O)cc1 (configuration not stated)	-23	102	97	0
CNC(C)Cc1ccccn1 (configuration not stated)	8	102	105	2
CCOC(=O)C1=C(SCC)c2ccc(-c3ccccc3)n2C1=O	-11	103	99	·
O=C(O)C1C2C=CC3(CN(C(c4ccccc4)c4ccccc4)C(=O)C13)O2 (configuration not stated)	-32	101	103	5
COc1ccc(C(=O)On2c(-c3ccccc3)cc3ccccc32)cc1	-37	101	100	-10
Cc1nc2cccc(C(=O)Oc3ccc(C(C)(C)C)cc3)c2o1	-8	104	112	·
CCN(CC)C(=S)Nc1c(C)cccc1C	-5	104	110	-9
CCC(Oc1ccccc1)C(=O)N1CCC(C(N)=O)CC1 (configuration not stated)	-26	100	103	-11
Fc1ccc(-c2nc(-c3ccc(C(F)(F)F)cc3)no2)c(Cl)c1	-12	105	107	-6
CN(C)c1cc(NCCN2CCCCC2)c2c3c(onc13)-c1ccccc1C2=O	-13	75	193	-5
CC1(C)CC(=O)C(C=NC23CC4CC(CC(C4)C2)C3)=C(O)C1	-13	101	103	-3
Cc1cc(C)c2c(=O)n(CC(=O)NCCc3ccc(Cl)cc3)sc2n1	-6	105	100	92
O=c1cnnc(NC2CCCCC2)[nH]1	-11	101	104	3
CCOC(=S)SCc1nc2ccccc2c(=O)n1-c1ccccc1	-2	101	101	2
Oc1ccc(-c2nnc(SCC3CCCCC3)o2)cc1	-31	103	103	2
COCC(C)NC(=S)Nc1ccc(F)cc1 (configuration not stated)	-12	108	116	-2
CCCn1nnnc1NC(=S)NC(=O)c1cc2ccccc2o1	-44	102	103	7
O=C(c1cccnc1Nc1cccc(Cl)c1)N1CCCCC1	-47	101	102	15
O=C(O)CC(C(=O)O)C1SC(=O)NC1=O (configuration not stated)	2	98	96	-2
COc1ccc(/C=C2\SC(=O)N(C)C2=O)c2ccccc12	-56	100	102	3
COC(=O)c1cccc(NC(=O)Cc2cccs2)c1C	-22	99	103	-10
COc1cc2[nH]c(=S)nc(NCCC(C)C)c2cc1OC	-17	101	91	12
CCOC(=O)c1cnc2cc(Cl)c(F)cc2c1N1CC(C)OC(C)C1 (configuration not stated)	-10	99	104	-4
O=C(OCc1cc(=O)oc2cc(O)ccc12)c1cccnc1Cl	7	104	99	-65
N#Cc1ccc(-c2cccnc2)n(CC(=O)N2CC(=O)Nc3ccccc32)c1=O	10	101	106	7
Oc1ccc(NCc2ccc(Br)cc2)cc1	5	102	100	20
COc1ccc(-c2nnc(SCC(=O)NC(C)(C)C)n2C(C)C)cc1	10	103	100	12
O=S(=O)(NCc1cccs1)c1ccc(Br)cc1	-9	104	102	-26
COc1cccc(CC(=O)N(Cc2ccc3c(c2)OCO3)C2CCCC2)c1	-11	105	126	-3
N#Cc1ccc(C=Nc2ccc(S(N)(=O)=O)cc2)cc1	-32	102	100	·
O=C(Cc1csc(-c2cccs2)n1)Oc1ccc2c(c1)CCC2	-22	98	105	44
CC(C)(C)NCC(O)c1ccccc1Cl (configuration not stated)	55*	102	101	-2
CCOC(=O)N1CCN(S(=O)(=O)N2CCCC(C(=O)NCCC(C)C)C2)CC1 (configuration not stated)	-41	101	102	-25
O=C1c2ccccc2C(=O)c2c1oc1c3c(ccc21)OCN(C1CCS(=O)(=O)C1)C3 (configuration not stated)	-8	87*	84*	-5
COc1ccc(NC(=O)c2cc3ccc(O)cc3o/c2=N\O)cc1	32*	101	105	8
Cc1cc(C)cc(OCC(=O)NCc2ccc3c(c2)OCO3)c1	-22	100	102	-5
O=S(=O)(NCC1CCCO1)c1ccc(Br)cc1 (configuration not stated)	5	109	114	·
S=C(NNc1ccc(Cl)nn1)NC1CC2CCC1C2 (configuration not stated)	-36	100	92	22
Cn1c(=O)n(C)c2cc(CN)ccc21	-5	102	101	0
CCC(C)Sc1nc2ccccc2c(=O)[nH]1 (configuration not stated)	-18	104	97	55
Cc1ccc2nc(C(F)(F)F)[nH]c2c1	-19	106	106	·
CC(CCc1ccccc1)NC(=O)Cc1nnc(-c2ccc(Br)cc2)o1 (configuration not stated)	-17	104	105	-2
CN(C)CCNC(=O)c1cccc(S(=O)(=O)Nc2ccccc2Cl)c1	-13	105	104	2
Cc1c(C(=O)N2CCC(C(N)=O)CC2)oc2ccc(Br)cc12	-20	104	97	-13
O=C(COc1ccc(Cl)cc1)N=Nc1c(O)n(CN2CCCCCC2)c2ccccc12	8	100	101	-3

26 neighbouring records already listed:
SMILES	Mtb MenB inh	PV pol inh	PV pol inh intensity	Mtb MbtI inh
CCCn1nnnc1NC(=S)NC(=O)c1cc2ccccc2o1	-44	102	103	7
O=C(c1cccnc1Nc1cccc(Cl)c1)N1CCCCC1	-47	101	102	15
O=C(O)CC(C(=O)O)C1SC(=O)NC1=O (configuration not stated)	2	98	96	-2
COc1ccc(/C=C2\SC(=O)N(C)C2=O)c2ccccc12	-56	100	102	3
COC(=O)c1cccc(NC(=O)Cc2cccs2)c1C	-22	99	103	-10
COc1cc2[nH]c(=S)nc(NCCC(C)C)c2cc1OC	-17	101	91	12
CCOC(=O)c1cnc2cc(Cl)c(F)cc2c1N1CC(C)OC(C)C1 (configuration not stated)	-10	99	104	-4
O=C(OCc1cc(=O)oc2cc(O)ccc12)c1cccnc1Cl	7	104	99	-65
N#Cc1ccc(-c2cccnc2)n(CC(=O)N2CC(=O)Nc3ccccc32)c1=O	10	101	106	7
Oc1ccc(NCc2ccc(Br)cc2)cc1	5	102	100	20
COc1ccc(-c2nnc(SCC(=O)NC(C)(C)C)n2C(C)C)cc1	10	103	100	12
O=S(=O)(NCc1cccs1)c1ccc(Br)cc1	-9	104	102	-26
COc1cccc(CC(=O)N(Cc2ccc3c(c2)OCO3)C2CCCC2)c1	-11	105	126	-3
N#Cc1ccc(C=Nc2ccc(S(N)(=O)=O)cc2)cc1	-32	102	100	·
O=C(Cc1csc(-c2cccs2)n1)Oc1ccc2c(c1)CCC2	-22	98	105	44
CC(C)(C)NCC(O)c1ccccc1Cl (configuration not stated)	55*	102	101	-2
CCOC(=O)N1CCN(S(=O)(=O)N2CCCC(C(=O)NCCC(C)C)C2)CC1 (configuration not stated)	-41	101	102	-25
O=C1c2ccccc2C(=O)c2c1oc1c3c(ccc21)OCN(C1CCS(=O)(=O)C1)C3 (configuration not stated)	-8	87*	84*	-5
COc1ccc(NC(=O)c2cc3ccc(O)cc3o/c2=N\O)cc1	32*	101	105	8
Cc1cc(C)cc(OCC(=O)NCc2ccc3c(c2)OCO3)c1	-22	100	102	-5
O=S(=O)(NCC1CCCO1)c1ccc(Br)cc1 (configuration not stated)	5	109	114	·
S=C(NNc1ccc(Cl)nn1)NC1CC2CCC1C2 (configuration not stated)	-36	100	92	22
Cn1c(=O)n(C)c2cc(CN)ccc21	-5	102	101	0
CCC(C)Sc1nc2ccccc2c(=O)[nH]1 (configuration not stated)	-18	104	97	55
Cc1ccc2nc(C(F)(F)F)[nH]c2c1	-19	106	106	·
CC(CCc1ccccc1)NC(=O)Cc1nnc(-c2ccc(Br)cc2)o1 (configuration not stated)	-17	104	105	-2

Remaining list, next part.
SMILES	Mtb MenB inh	PV pol inh	PV pol inh intensity	Mtb MbtI inh
CC1=C(C(=O)OC(C)C)C(c2sccc2C)NC(=O)N1 (configuration not stated)	-2	102	99	6
CCc1c(O)n(C2CCCCC2)c(=S)[nH]c1=O	-60	99	104	17
Cc1nnc(SCC(=O)NC2CCCCC2)[nH]c1=O	18	103	100	1
C=CCc1ccccc1Oc1cc(OC)nc(N)n1	-8	105	99	·
Cc1onc(-c2ccccc2Cl)c1C(=O)N1CCN(C)CC1	·	102	107	-4
CCc1ccc2c(c1)C(NC(C)=O)C(=O)N2C (configuration not stated)	-3	100	103	8
CCOc1ccccc1N1CCN(CC(=O)Nc2ccc3c(c2)OC(F)(F)O3)CC1	-13	102	106	-17
Cc1cc(C)c(C(=O)COC(=O)C2=NNC(=O)CC2)c(C)c1	8	98	109	0
NC(=O)C1CCN(CC(O)COc2ccc3c(c2)OCO3)CC1 (configuration not stated)	-11	105	113	-7
N#Cc1cc(Cl)c2c(c1)OCCO2	-40	106	114	-7
Cc1cccc(NC(=S)N2CCOC2c2ccsc2)c1 (configuration not stated)	-2	105	107	-11
O=C1C2(c3ccccc3)CN(CCCO)CC1(c1ccccc1)CN(CCCO)C2	2	103	99	18
CCn1cc(CCCC(=O)N2CCC3(CC2)OCCO3)c2ccccc21	-12	102	100	4
CC(C)(C)OC(=O)N1CCC(CNC(=O)c2ccno2)CC1	9	103	108	-10
Cc1sc2ncnc(Sc3ncnc4sccc34)c2c1C	11	100	113	-15
COc1cc(S(=O)(=O)N(CC(=O)Nc2c(C)cccc2C)CC2CCCO2)ccc1-n1cnnn1 (configuration not stated)	-23	102	103	-3
CC1=NOC(=O)/C1=C/c1ccc(N2CCOCC2)cc1	-16	101	101	14
COC(=O)C1=C(C)N(Cc2ccccc2)C(=O)NC1c1ccccc1 (configuration not stated)	-16	99	102	3
CCSc1nnc2[nH]c(=O)c(C)c(C)n12	-8	105	102	15
N#CCCNCc1ccco1	-17	102	109	-13
O=C(NCc1nc(-c2ccc(C(F)(F)F)cc2)no1)c1ccccc1C(F)(F)F	-19	103	99	-11
CC(C)=CC(=O)CC(O)(c1ccccc1)c1ccccc1	-17	105	106	8
Cc1ccc(C(=O)Cn2nnc(-c3ccccc3Cl)n2)cc1	·	103	106	-5
CCOC(=O)c1ccc2c(c1)c(C)c(C)n2Cc1ccccc1	-33	102	107	170
C[N+](C)(CCCOc1ccccc1)c1ccccc1	4	100	101	-16
O=C(Nc1ccc(-c2cc3ccccc3o2)cc1)C1CC1	-21	102	104	i
CCOC(=O)N1CCN(C(=O)c2ccc(NS(=O)(=O)c3ccccc3)cc2)CC1	-18	99	100	-3
Cc1ccc(C)n1-c1ccc(NC(=O)c2ccccc2)cc1	-22	102	102	-18
O=C(Nc1ccc2c(c1)OCCO2)c1ccc2nccnc2c1	-8	99	98	-1
O=C(O)COc1ccccc1/C=N/NC(=O)C1CC1	-3	96	100	1
COc1ccc(N2CCN(C(=O)c3sc4ncn(CC(=O)N5CCCCC5)c(=O)c4c3C)CC2)cc1	-21	100	102	-14
COc1ccc(C2C(C(=O)NCc3ccccn3)c3cc(OC)c(OC)cc3C(=O)N2C)cc1OC (configuration not stated)	-60	98	103	5
COc1ccc(C(=O)OCc2nnc(-c3ccccc3)o2)cc1S(=O)(=O)Nc1ccc(C)cc1	-18	106	107	-6
Cc1ccn2c(=O)cc(CSc3nnc(-c4cccs4)n3C3CC3)nc2c1	-26	100	107	2
COc1ccc(CN2C(=O)C(O)(CC(=O)c3ccc4c(c3)OCO4)c3ccccc32)cc1OC (configuration not stated)	-25	104	103	-4
Cc1cc(S(=O)(=O)N2CCC(NC(=O)Cc3ccccc3)CC2)c(Cl)cc1Cl	2	102	104	-7
COc1ccc(CC(=O)Nc2nccs2)cc1OC	-11	103	104	·
Cc1cc2ccccn2c1C(=O)c1ccco1	-276	105	109	28
CCOC(=O)c1ccc(NC(=O)Cn2ncc3ccccc32)cc1	-18	103	104	-3
O=C(Cn1ncc2c3ccccc3n(Cc3ccccc3F)c2c1=O)NC1CC1	4	100	102	5
CC(c1ccccc1)n1cnc2cc(N)ccc21 (configuration not stated)	-10	99	102	-33
COc1ccc(-c2cc(=O)oc3cc(O)c(Cl)cc23)cc1	-39	98	101	0
Cc1ccc(/C=C/C(=O)Nc2ccccc2C(F)(F)F)c(C)c1	2	98	98	·
Nc1nonc1C(=O)NN=c1c(=O)c2ccccc2c1=O	i	47*	49*	-26
O=S(=O)(NNc1ccc(F)cc1F)c1ccc(Cl)cc1	7	100	100	35
Cc1cc(C)c2c(n1)SCCN2C(=O)Nc1ccc(C(=O)N2CCCCC2)cc1	2	101	101	-16
COC(=O)c1cc(-c2ccc(Cl)cc2)on1	26	101	107	·
Oc1cc(Cl)c(Cl)cc1O	-61	92	98	102*
N#Cc1ccc(-c2cccnc2)n(CC(=O)NCc2ccccc2)c1=O	24	100	101	45
Cc1ccccc1NC(=O)Cc1nnc(SCC(=O)c2ccccc2)n1C	-8	102	102	-13

Next results follow.
SMILES	Mtb MenB inh	PV pol inh	PV pol inh intensity	Mtb MbtI inh
CCC1(c2cccc(OC(=O)Nc3ccc(OC(F)(F)F)cc3)c2)CCCCN(C)C1=O (configuration not stated)	-16	103	108	-10
CCOC(=O)c1ccc2nc(C(F)(F)F)nc(NCCCN3CCOCC3)c2c1	-19	100	104	0
O=c1c(Cl)c(N2CCCCC2)cnn1-c1ccccc1	10	99	98	5
COc1cccc(-c2nnc(-c3ccc(C)o3)o2)c1	-38	104	104	90

Compound activity deposited in PubChem by ICCB-Longwood Screening Facility, Harvard Medical School.
